Assay outcomes as filed in PubChem.
Rango release inh: prevents RanGTP from dissociating the Rango-importin beta complex | O95149+P62826 | Potency, µM (titrated, usually from 46.1 µM), without a hit: top-dose activity change, negative = inhibition | Biochemical FRET Rango-importin beta, RanGTP-induced dissociation | 0.071% of 340,000 active; active means falling FRET ratio curve, often poorly fitted, with flat reads before Ran was added; inconclusive means other falling curves, or compound fluorescence or quenching; inactive means flat or rising ratio curve;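 note: potency is the fitted concentration of half-maximal effect; % of control where 0% means no effect; nearly all actives have a fitted effect of over 45% in size; -100% = wells without RanGTP and RCC1; the record marks most hits as doubtful in a second field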
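Compounds preincubate 5 min with complex of recombinant Rango and importin beta in PBS with 1 mM DTT. Ran (0.6 uM) loaded with 2 mM GTP plus 0.2 uM RCC1 starts dissociation; FRET is recorded 45 min later.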
Rango-impB inh: prevents formation of the Rango-importin beta complex | Q14974 | Rango CFP/YFP FRET sensor + importin beta, 45 min | Potency, µM (series often up to 92.2 µM), for the others: at the highest dose inhibition of complex formation | 0.031% of 340,000 active; active = rising FRET ratio curve, often small or poorly fitted; inconclusive = mostly compound fluorescence or quenching in the first reads; inactive = flat curves in all reads;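 note: potency is the fitted concentration of half-maximal effect; 0% = DMSO wells and 100% = buffer wells lacking importin beta; nearly all actives have a fitted effect of over 15% in size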
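Inhibition scored from the CFP 486 nm/YFP 530 nm FRET ratio 45 min after adding 0.125 microM importin beta to 50 nM Rango biosensor preincubated 5 min with compound (room temperature, PBS with DTT, Tween-20, BSA). No-importin wells as positive control.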
miR-21 reporter: raises the signal of a miR-21 reporter | HeLa miR-21 FLuc reporter, luciferase, 48 h | Potency, µM (top dose mostly 38.3 µM), for the others: at the highest dose reporter change, positive = more light | 340,000 tested, under 10 active | AID 2288; active = well fitted rising curve with a large enough effect; inconclusive = small, poorly fitted or top-dose-only effect; inactive = no such curve, though single readings can be large or run the other way;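 note: % of control where 0% means no effect; miR-21 action dims this reporter so a rising signal means less miR-21 action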
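HeLa cells endogenously expressing miR-21, stably carrying CMV-driven firefly luciferase with a downstream miR-21 binding site, 2000 cells/well. Titrations up to approximately 40 uM, 48 hours; luciferase luminescence read.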
GLA inh pH 4.5: blocks human alpha-galactosidase A at pH 4.5; P06280; purified enzyme, 4-MU-alpha-Gal fluorescence, pH 4.5; activity change, negative = inhibition, % at 105 µM; 230,000 tested, under 10 active; AID 1467; inconclusive = small, poorly fitted or top-dose-only inhibition, or a rising curve; inactive = flat fitted curve, though single readings scatter; no compound was filed as active;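 note: 0% = full activity with enzyme and -100% = basal without enzyme; dose as in the result columns while the protocol names 77 µM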
Target sequence (P06280 whole entry, looked up): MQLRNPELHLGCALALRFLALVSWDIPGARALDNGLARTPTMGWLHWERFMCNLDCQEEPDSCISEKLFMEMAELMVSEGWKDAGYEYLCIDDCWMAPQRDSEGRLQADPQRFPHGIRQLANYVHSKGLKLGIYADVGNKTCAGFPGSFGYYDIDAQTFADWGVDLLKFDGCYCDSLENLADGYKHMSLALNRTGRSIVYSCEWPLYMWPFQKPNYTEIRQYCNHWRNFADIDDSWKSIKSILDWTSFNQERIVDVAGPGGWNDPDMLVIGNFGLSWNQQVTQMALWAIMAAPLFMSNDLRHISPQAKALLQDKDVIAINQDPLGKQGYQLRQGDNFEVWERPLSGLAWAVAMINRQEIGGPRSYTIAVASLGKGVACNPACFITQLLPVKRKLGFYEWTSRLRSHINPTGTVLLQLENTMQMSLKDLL
* = called active by the depositor; ? = inconclusive; . = not tested or not shown; [ ] = remark or other dose. Some of the compounds tested; count on the stated rates, not on these rows.

SMILES	Rango release inh	Rango-impB inh	miR-21 reporter	GLA inh pH 4.5
O=C(O)c1cccc(Oc2ccc([N+](=O)[O-])cc2)c1	3%	?	-1%	-1
COc1ccc(/C=N/NC(=O)c2cc(-c3ccccc3)nc3ccccc23)c(OC)c1	1%	-1.4%	4%	.
Cc1ccc(S(=O)(=O)N2CCCN(S(=O)(=O)c3ccc(C(F)(F)F)cc3)CC2)cc1	13%	-2.4%	-3%	-1
N#Cc1ccc(C(=O)OCC(=O)Nc2cccc(S(=O)(=O)NC3=NCCC3)c2)cc1	-12%	0.8%	.	.
Cc1ccc(SCc2ccc(C(=O)Nc3nccs3)o2)cc1	-8%	-2.8%	-34%	.
COc1cccc(-c2nnc(SCC(=O)OC(C)C)n2N)c1	-8%	?	-9%	3
CC(CCc1ccccc1)NC(=O)CCC(=O)N1CCC(C(=O)O)CC1 (stereo not given)	7%	-0.2%	-3%	.
CCC(c1nnnn1CCOC)N1CCN(Cc2ccccc2)CC1 (stereo not given)	-17%	0.0%	-5%	-2
CCCCCCn1c(N2CCCC2)nc2c1c(=O)n(C)c(=O)n2C	0%	-0.5%	10%	.
O=C(Nc1ccc(Cl)cn1)c1ccccc1[N+](=O)[O-]	18%	?	10%	4
CCC1(C)C(Nc2c(C)cccc2C)=NC(=S)N1c1ccc(NC(C)=O)cc1 (stereo not given)	-6%	5.0%	-6%	3
Cc1ccc(N(C(C)C(=O)Nc2c(C)n(C)n(-c3ccccc3)c2=O)S(C)(=O)=O)cc1C (stereo not given)	10%	2.6%	-2%	2
CCn1c(CNC(=O)c2ccccc2Br)nnc1SCC(=O)Nc1nncs1	-2%	2.8%	2%	.
O=C(CCC(=O)OCC(=O)c1ccc(C(F)(F)F)cc1)OCC(=O)c1ccc(C(F)(F)F)cc1	-2%	0.0%	-1%	-4
FC(F)(F)c1cccc(Cn2nnnc2-c2ccc(Cl)cc2)c1	6%	0.0%	-8%	-1
O=C1CC(c2ccccc2)SC(N(c2ccccc2)c2ccccc2)=N1 (stereo not given)	6%	6.5%	-14%	-1
CCc1ccc2[nH]c(=O)c(CN(CCCN3CCOCC3)C(=O)Nc3ccccc3)cc2c1	4%	-3.0%	19%	-2
CCn1cc(CN2CCc3c([nH]c4ccccc34)C2c2ccc(F)c(OC)c2)c(C)n1 (stereo not given)	?	?	-2%	-27
O=C(NC(=S)Nc1ncccn1)c1ccccc1Br	4%	-0.9%	-24%	.
CC(NC(=O)[C@H](C)NC(=O)[C@@H]1CSC2c3ccccc3C(=O)N21)c1ccccc1 (stereo not given in full)	-3%	-0.7%	-1%	.
CC(=O)Nc1ccc(S(=O)(=O)N(C)CC(=O)OCC(=O)N(C)c2ccccc2)cc1	1%	-2.9%	0%	.
CCOC(=O)C(=O)Nc1cccc(C(=O)OCC)c1	-1%	-3.3%	-1%	0
O=C(c1cccc(Cl)c1)N1CCN(Cc2ccccc2F)CC1	-15%	-1.3%	-9%	7
CC(C)CCNC(=O)[C@@H](NC(=O)c1c(F)cccc1F)C(C)C	-8%	-0.2%	1%	1
C=C(C)c1ccccc1	30%	2.2%	.	.
Cc1ccc(S(=O)(=O)N(C)CC(=O)Oc2ccc(-c3nnco3)cc2)cc1	-7%	0.5%	.	.
CCN(C(=O)CSc1nc2cc(Cl)ccc2c(=O)n1Cc1ccco1)C1CCS(=O)(=O)C1 (stereo not given)	5%	-1.7%	5%	4
CCn1c(COc2cccc(C)c2)nnc1SCC(=O)CC(=O)Nc1ccccc1OC	-22%	0.1%	-9%	-5
COc1cccc(C(C(=O)NC(C)(C)C)N(C(=O)CCC(=O)Nc2cc(C)on2)C2CC2)c1OC (stereo not given)	-9%	0.4%	-1%	1
COCCn1c(C)cc(C(=O)COC(=O)c2cncc(Br)c2)c1C	1%	0.3%	-19%	2
CCc1nnc(NC(=O)[C@@H](NC(=O)c2cc(OC)cc(OC)c2)C(C)C)s1	-4%	0.8%	-4%	2
NC(N)=NC(N)=NCCc1ccccc1	-14%	0.2%	-19%	0
Cc1onc(NC(=O)c2ccc([N+](=O)[O-])o2)c1Br	-5%	3.2%	17%	-1
CC(C)(C)OC(=O)N[C@H](C(=O)OC(C)(C)C)c1ccc2ccccc2c1	1%	-0.5%	.	.
Cc1cccn2c(=O)c3cc(C(=O)N4c5ccccc5CC4C)n(C)c3nc12 (stereo not given)	1%	0.1%	-8%	2
CCOC(=O)c1c(C)[nH]c2c1cc(O)c1ccccc12	-27%	?	-42%	-22
Cc1nc2scc(-c3ccco3)c2c(=O)n1/N=C/N(C)C	-6%	-2.2%	-1%	0
CC1CN(CC(=O)Nc2nc(-c3ccc(Cl)cc3)cs2)CC(C)O1 (stereo not given)	-4%	-0.6%	.	.
Cn1c(SCC(=O)Nc2ccccc2)nc(O)cc1=O	8%	2.3%	6%	0
CCN(C(=O)COC(=O)/C=C/c1cccc(Br)c1)C1CCS(=O)(=O)C1 (stereo not given)	10%	1.9%	2%	.
Cc1noc(/C=C/c2ccco2)c1S(=O)(=O)N1CCC(C(=O)N2c3ccccc3CC2C)CC1 (stereo not given)	-5%	-1.2%	-10%	3
Cc1ccc2nc(-c3ccsc3)c(NC3CCCC3)n2c1	-6%	0.5%	-22%	-10[21.1 µM]
CCc1ccc2oc(-c3cc(N=Cc4cccc(OC)c4O)ccc3O)nc2c1	0%	-0.8%	-72%	-9
N#Cc1c(-c2ccco2)nc(NCC2CCCO2)[nH]c1=O (stereo not given)	4%	-0.7%	1%	-1
COc1ccccc1NC(=O)C1CCOC1=O (stereo not given)	1%	1.1%	.	.
O=C(c1ccc(OCC2CCCO2)cc1)N1CCN(S(=O)(=O)c2cccc(F)c2)CC1 (stereo not given)	4%	-4.2%	.	.
O=S1(=O)N=C(Nc2ccc(S(=O)(=O)N3CCCCC3)cc2)c2ccccc21	8%	-5.1%	1%	-5
Cc1cccc(N2CN=c3s/c(=C\c4ccccn4)c(=O)n3C2)c1	-5%	-1.8%	2%	-15
COc1cccc(CC2(CO)CCN(C(=O)NC3CCCCC3)CC2)c1	-4%	5.3%	-2%	-13
CC(=O)NCCc1ccc(C(=O)COC(=O)C2CCCCC2)cc1	-2%	0.6%	.	.
O=c1oc2ccccc2c(NC2CCCCC2)c1NS(=O)(=O)c1ccc(F)cc1	-1%	-2.6%	4%	.
CCCN(C(=O)c1ccco1)c1nnc(-c2ccncc2)s1	6%	4.7%	-33%	-4
CCN1CCN(C(=O)c2sc3nc(C)nc(N4CCC(C)CC4)c3c2C)CC1	-9%	5.1%	-14%	-3
COc1cc(OC)cc(-c2sc3ccc(OC)cc3c2-c2ccc(OCCN3CCOCC3)cc2)c1	1%	-0.1%	.	.
COc1cc2ccccc2cc1C(=O)NCCCN1CCOCC1	1%	0.9%	.	.
COc1ccc(NC(=O)CCN2C(=O)c3ccccc3C2=O)c(OC)c1	18%	3.0%	0%	.
COc1cccc(C2C3=C(CC(C)(C)CC3=O)Nc3cc4c(cc32)OCO4)c1 (stereo not given)	-9%	?	7%	2
CC(C)C(NS(=O)(=O)c1cccc(C(F)(F)F)c1)C(=O)NCc1cccs1 (stereo not given)	-13%	?	.	.
CC(C)C(C(=O)NC1CCCC1)N(CC1CCCO1)C(=O)CNS(=O)(=O)c1ccc(F)cc1 (stereo not given)	22%	9.2%	1%	.
C/C(=N\NC(=S)Nc1c(C)cccc1C)c1cc2ccccc2o1	10%	0.1%	13%	-21
Remaining list, next part.
SMILES	Rango release inh	Rango-impB inh	miR-21 reporter	GLA inh pH 4.5
Cc1ccc(S(=O)(=O)N2CCOCC2)cc1-c1n[nH]c(=S)n1-c1ccccc1	-3%	5.1%	.	.
COc1ccc(-c2ccc(CCC(=O)O)n2CC2CCCO2)cc1 (stereo not given)	?	?	10%	2
Nc1ccc2nc(-c3ccc(-c4nc5ccc(N)cc5[nH]4)cc3)[nH]c2c1	?	?	6%	.
S=c1[nH]nc(-c2ccccc2)n1/N=C/c1cccs1	-13%	5.4%	-10%	4
CN1C(=O)C2(OCC(C)([N+](=O)[O-])CO2)c2ccccc21 (stereo not given)	-5%	0.6%	-1%	.
CC(C)(C)OC(=O)C[C@@H]1C/C=C\C[C@@H](CC(=O)N[C@H](CO)Cc2ccccc2)C(=O)NCCOC1=O	1%	-0.3%	.	.
O=C(COC(=O)c1cc(-c2ccncc2)nc2ccccc12)Nc1ccc2c(c1)OCO2	.	.	-4%	-3
Cc1cc(NC(=O)CSc2ccc(-c3ccccc3)nn2)no1	-5%	-0.1%	-6%	-22
N#Cc1ccccc1S(=O)(=O)N1CCNS(=O)(=O)c2ccccc21	-4%	-1.2%	.	.
COc1ccc(-c2nnc3sc(-c4ccc(Br)o4)nn23)cc1OC	.	.	-8%	9
Cc1cc(C)c(C#N)c(SCC(=O)N2CCCCC2)n1	2%	?	-10%	7
CCOC(=O)c1c(NC(=O)COC(=O)c2ccc(O)cc2)sc(C(=O)NC)c1C	0%	-2.0%	.	.

Sorted by SMILES length (falling): part of the list above
SMILES	Rango release inh	Rango-impB inh	miR-21 reporter	GLA inh pH 4.5
O=C(CCC(=O)OCC(=O)c1ccc(C(F)(F)F)cc1)OCC(=O)c1ccc(C(F)(F)F)cc1	-2%	0.0%	-1%	-4
Cc1noc(/C=C/c2ccco2)c1S(=O)(=O)N1CCC(C(=O)N2c3ccccc3CC2C)CC1 (stereo not given)	-5%	-1.2%	-10%	3
CCN(C(=O)COC(=O)/C=C/c1cccc(Br)c1)C1CCS(=O)(=O)C1 (stereo not given)	10%	1.9%	2%	.
Cc1cccn2c(=O)c3cc(C(=O)N4c5ccccc5CC4C)n(C)c3nc12 (stereo not given)	1%	0.1%	-8%	2
CCN1CCN(C(=O)c2sc3nc(C)nc(N4CCC(C)CC4)c3c2C)CC1	-9%	5.1%	-14%	-3
Cc1cccc(N2CN=c3s/c(=C\c4ccccn4)c(=O)n3C2)c1	-5%	-1.8%	2%	-15
O=C1CC(c2ccccc2)SC(N(c2ccccc2)c2ccccc2)=N1 (stereo not given)	6%	6.5%	-14%	-1
Cc1onc(NC(=O)c2ccc([N+](=O)[O-])o2)c1Br	-5%	3.2%	17%	-1
Cc1nc2scc(-c3ccco3)c2c(=O)n1/N=C/N(C)C	-6%	-2.2%	-1%	0
Cc1cc(NC(=O)CSc2ccc(-c3ccccc3)nn2)no1	-5%	-0.1%	-6%	-22
CCOC(=O)c1c(C)[nH]c2c1cc(O)c1ccccc12	-27%	?	-42%	-22
S=c1[nH]nc(-c2ccccc2)n1/N=C/c1cccs1	-13%	5.4%	-10%	4
O=C(NC(=S)Nc1ncccn1)c1ccccc1Br	4%	-0.9%	-24%	.
COc1ccccc1NC(=O)C1CCOC1=O (stereo not given)	1%	1.1%	.	.
C=C(C)c1ccccc1	30%	2.2%	.	.

The listing continues.
SMILES	Rango release inh	Rango-impB inh	miR-21 reporter	GLA inh pH 4.5
Nc1c(C(=O)c2ccc(Br)s2)oc2ccccc12	?	?	-29%	-1
CC(=O)Nc1ccc(NC(=O)c2ccc(OCc3c(C)noc3C)cc2)cc1	-5%	0.6%	.	.
O=C(COC(=O)CCc1nc2ccccc2c(=O)[nH]1)NC1CCS(=O)(=O)C1 (stereo not given)	12%	1.9%	4%	1
CCC(=O)N1CCN(c2ccc(NC(=O)c3ccc4ccccc4c3)cc2)CC1	-7%	-1.5%	-12%	.
Cc1cccc(C)c1OCc1cc(C(=O)N2CCN(C3CCCC3)CC2)no1	2%	3.0%	-27%	.
CC1(C)Cc2c(sc(NC(=O)c3ccc4c(c3)OCCO4)c2C(N)=O)C(C)(C)N1	-5%	-2.7%	-11%	.
N#C/C(=C\c1ccc[nH]1)C(=O)c1ccccc1	?	?	-11%	-5
CCn1c(CNC(=O)c2ccccc2OC)nnc1SCC(=O)c1ccc(F)cc1	-10%	-0.3%	11%	.
CCOc1cc(/C=N/NC(=O)c2ccc(CN3CCOCC3)cc2)ccc1OCc1ccccc1	8%	1.5%	-2%	-6
COCCCN1C(=O)C(=O)/C(=C(/O)c2ccc(OC)cc2)C1c1cccc(OC)c1 (stereo not given)	-6%	0.7%	2%	-6
